PINK1 modulator – PINK1 expression modulation; PINK1 immunofluorescence, high-content cytometry, 24 h; Potency, µM (series often up to 76.6 µM), without a hit: top-dose activation (PINK1 increase), actives largely listed as activators; AID 624263; 410,000 tested, 0.2% active; active = well fitted activation curve with a large enough effect; inconclusive = small, poorly fitted or top-dose-only effect; inactive = flat fitted curve, though single readings scatter; cell line not stated here;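 note: potency is the fitted concentration of half-maximal effect; % of control where 0% means no effect; nearly all actives have a fitted effect of over 65% in size; a mitochondrial uncoupler was the plate control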
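Decision-based qHTS: stable cells, 24 h exposure to five compound concentrations, CCCP as control. Fixed cells stained for PINK1 plus nuclear, mitochondrial and cell markers, cytometer read.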
TRPML1 agonist – human mucolipin-1 channel agonism | TRPML1-expressing cells, Ca2+ dye fluorescence, FDSS; host cell line not named in the record; reference of the full effect not given here | activation, % (no concentration beside the values) | 410,000 tested, 0.12% active | Q9GZU1; in the data active = activation above about 50%; inconclusive = about 30% to 50%; inactive = below about 30%; note: 0% is about no effect; the text of the record puts the active cut at 80%
Target sequence (Q9GZU1 whole entry, looked up): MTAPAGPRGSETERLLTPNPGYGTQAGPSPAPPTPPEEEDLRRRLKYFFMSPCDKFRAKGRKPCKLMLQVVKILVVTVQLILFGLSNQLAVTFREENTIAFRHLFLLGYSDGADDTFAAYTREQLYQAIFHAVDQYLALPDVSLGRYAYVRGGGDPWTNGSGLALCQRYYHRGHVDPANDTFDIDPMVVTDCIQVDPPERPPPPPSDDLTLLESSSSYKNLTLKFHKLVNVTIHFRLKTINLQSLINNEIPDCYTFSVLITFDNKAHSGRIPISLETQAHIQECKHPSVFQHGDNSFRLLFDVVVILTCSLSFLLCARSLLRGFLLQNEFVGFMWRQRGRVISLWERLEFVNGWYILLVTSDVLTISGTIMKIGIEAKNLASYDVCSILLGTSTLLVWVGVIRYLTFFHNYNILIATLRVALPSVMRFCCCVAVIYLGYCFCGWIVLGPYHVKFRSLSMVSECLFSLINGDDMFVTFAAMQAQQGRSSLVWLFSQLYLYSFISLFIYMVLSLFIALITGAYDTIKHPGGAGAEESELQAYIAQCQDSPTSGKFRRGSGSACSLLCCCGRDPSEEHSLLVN
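Calcium fluorescence on an FDSS kinetic reader gave the read-out. Tet-induced TRPML1-DL cells were plated overnight, dye-loaded (Ca8 with quencher, 45-90 min, room temperature, dark), then read 110 s after compound addition, and again 110 s after 4uM final 54-4 (EC80).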
An asterisk follows results filed as active; ? = inconclusive. Some of the compounds tested; count on the stated rates, not on these rows.

SMILES	PINK1 modulator	TRPML1 agonist
CCOc1cc(C(=O)Nc2ccc(-c3cn4cccnc4n3)cc2)cc(OCC)c1OCC	1.4%	0.4
CCOC(=O)c1ccccc1NC(=O)CSc1nnc(CC)n2c1cc1occc12	-0.6%	0.8
CCOC(=O)C1CCN(C(=O)Cn2ncc3c4ccccc4n(Cc4ccccc4)c3c2=O)CC1	1.4%	1.3
O=C(Nc1ccc2nc(SCCOc3ccccc3)sc2c1)c1ccco1	7.4%	0.5
COCCCn1c(=N)c(C(=O)NC2CCCCC2)cc2c(=O)n3cc(C)ccc3nc21	0.1%	-0.4
CCN(Cc1ccccc1)C(=O)C1CCN(S(=O)(=O)c2c(C)noc2/C=C/c2ccc(C)cc2)CC1	0.6%	1.1
COc1ccc(NC(=O)CSc2nnc(NC(=O)NC3CCCCC3)s2)cc1OC	2.1%	3.2
CC(C)c1nnc(N2C(=O)c3oc4ccccc4c(=O)c3C2c2ccccc2F)s1 (stereo not drawn)	3.0%	-0.4
CCn1c(C(=O)NCc2ccc(OC)cc2)cc2sc(Cl)cc21	1.2%	0.5
Cc1c2cnn(-c3ccccc3)c(=O)c2c(C)n1CC(=O)N1CCN(c2cccc(Cl)c2)CC1	1.7%	-1.0
CCCCNC(=O)CN1C(=O)COc2ccc(S(=O)(=O)N3CCCC3)cc21	-0.1%	0.0
COc1ccc(-c2nc(CCNC(=O)c3cccs3)cs2)cc1OC	0.7%	2.5
Cc1ccc(NC(=O)C(=O)NCC(c2cccnc2)N2CCN(c3ccccc3F)CC2)cc1Cl (stereo not drawn)	0.5%	-0.6
Fc1ccc(-n2cc(-c3ccccc3)c3c(NC4CCCCC4)ncnc32)cc1	0.2%	0.2
CCc1nc2nc(C)c(NS(=O)(=O)c3ccc(C)cc3)c(=O)n2[nH]1	-0.7%	0.9
Cc1cccc(N2CCN(C(=O)C3CCN(C(=O)c4cc5sccc5n4C)CC3)CC2C)c1 (stereo not drawn)	1.0%	1.3
O=C(CSc1nc2c(c(=O)[nH]1)CCC2)Nc1ccccc1C(F)(F)F	-0.8%	3.5
Cc1ccc2nc(-c3ccc(NC(=O)COc4ccc(Cl)c(C)c4)cc3)sc2c1	1.1%	0.9
CCCC(=O)Nc1ccc2oc(-c3ccc(O)c(Br)c3)nc2c1	6.4%	0.6
Cc1ccc(CNc2nc3c(S(=O)(=O)c4ccc(C)c(C)c4)nnn3c3ccc(Cl)cc23)cc1	-1.1%	-0.3
Cc1c(Cl)cccc1N1CC(c2nc3ccccc3n2Cc2ccccc2F)CC1=O (stereo not drawn)	?	3.0
CCOC(=O)c1ccccc1NC(=O)NC(C)c1c(-n2cccc2)sc(C)c1C (stereo not drawn)	0.9%	4.7
CCCCCn1c(=O)[nH]c2cc(C(=O)Nc3ccc(OC)c(OC)c3)ccc2c1=O	1.7%	0.0
CCn1ccc2cc(S(=O)(=O)N3CCCN(C(=O)NCCOC)CC3)ccc21	-1.5%	4.2
COc1cc(C2C(C(=O)OCC(C)C)=C(C)N=C3SCCC(=O)N32)ccc1OCc1ccccc1 (stereo not drawn)	1.7%	0.4
COc1ccc(NC(=O)C2=C(C)Nc3ncnn3C2c2ccc(O)cc2)cc1 (stereo not drawn)	-2.8%	0.5
CCn1c(=O)cc(OCC(=O)NCc2ccc(F)cc2Cl)c2ccccc21	0.7%	-0.2
Cc1nn(CC(=O)Nc2cc(F)ccc2F)c(=O)c2cccn12	1.5%	-0.3
Cc1ccc(-n2c(SCc3ccccc3F)nc3[nH]ncc3c2=O)cc1Cl	-0.7%	1.5
CC1C(=O)Nc2ccc(S(=O)(=O)NCc3ccc(N(C)C)cc3)cc2NC1=O (stereo not drawn)	1.6%	-0.2
CC(=O)Nc1ccc(S(=O)(=O)N2CCN(c3ccccc3)CC2)cc1	-1.5%	0.5
COc1ccc(C)cc1NC(=O)Nc1cc(C(=O)NCc2ccc(C)cc2)ccc1N1CCCC1	-0.2%	0.8
COc1ccc(CCNC(=O)CSc2ncc3c(n2)-c2cc(Cl)ccc2N(Cc2ccccc2)S3(=O)=O)cc1OC	3.2%	1.2
Cc1nc2nc(CNC(=O)c3cccc(F)c3)nn2c(C)c1CCC(=O)Nc1cccc(Cl)c1	3.7%	2.6
Cc1cc(=O)n2c(C(=O)Nc3ccc(F)c(Cl)c3)c(C(=O)Nc3cccc(C)c3C)sc2n1	3.1%	-0.6
O=C(NCCc1csc(-c2ccc(C(F)(F)F)cc2)n1)c1ccc(F)c(F)c1	?	1.9
Cc1cc(C)cc(N2CCn3c2nc2c3c(=O)n(CCc3ccccc3)c(=O)n2C)c1	3.3%	0.5
CCOC(=O)c1[nH]c2ccccc2c1NC(=O)c1cc(OCC)c(OCC)c(OCC)c1	10%	0.7
COc1ccc(CCCc2nnc(SCC(=O)Nc3ccc(Cl)cc3)o2)cc1	-0.1%	-0.9
CN(Cc1ccccc1)c1ccc(/C=C/c2sc3ccccc3[n+]2C)cc1	?	4.3

Entries of single compounds, looked up by structure:
Results for CCOc1cc(C(=O)Nc2ccc(-c3cn4cccnc4n3)cc2)cc(OCC)c1OCC : PINK1 modulator: 1.4%; TRPML1 agonist: 0.4
Results for CC(=O)Nc1ccc(S(=O)(=O)N2CCN(c3ccccc3)CC2)cc1 : PINK1 modulator: -1.5%; TRPML1 agonist: 0.5

Additional results:
SMILES	PINK1 modulator	TRPML1 agonist
COc1cccc(NC(=O)Cn2nc(C)c3c(C)n(-c4ccccc4)nc3c2=O)c1	0.3%	0.5
NC1CCc2ccccc21 (stereo not drawn)	0.0%	-0.4
CCN(C(=O)CSc1nc(-c2ccccc2)no1)c1cccc(C)c1	13µM*	-0.7
Cc1c(Cl)cccc1-n1nc(C)c2c(C(=O)NCc3ccccc3)cc(C3CC3)nc21	0.6%	-0.8
O=C(Cn1c(SCCOc2ccccc2Cl)nc2ccccc21)N1CCOCC1	0.1%	-0.2
CS(=O)(=O)CC[C@@H](C(=O)NCCc1ccccc1)N1Cc2ccccc2C1=O	2.4%	0.0
COc1cccc(Cn2c(=O)n(Cc3ccco3)c(=O)c3oc4ccccc4c32)c1	1.4%	1.9
CC1CCN(S(=O)(=O)c2cn(CC(=O)Nc3cccc(C(F)(F)F)c3)c(=O)c3ccccc23)CC1	2.7%	0.2
CCc1ccc(NC(=O)N2CCN(Cc3cc(=O)n4nc(-c5ccccc5OC)sc4n3)CC2)cc1	8.3%	-1.0
COc1ccc(NC(=O)C(=O)NCC2(c3ccccc3)CCCC2)c(OC)c1	1.1%	0.0
COc1ccccc1NC(=O)CCn1nc(-c2ccccc2OC)c2c(C)cc(C)nc21	-4.0%	2.9
COc1ccc(N2CCN(Cc3nc4c(c(=O)[nH]c(=O)n4C)n3Cc3ccccc3)CC2)cc1	1.5%	-0.3
Cc1ccc(NC(=O)c2cc(S(=O)(=O)NCCc3ccc(Cl)cc3)ccc2F)cc1	23%	2.3
CCOC(=O)c1ccc(-c2ccc(/C=C(\C#N)c3nc4ccc(C)cc4[nH]3)o2)cc1	5.8%	51*
COc1ccc(Nc2ncnc3c2c(-c2ccccc2)cn3-c2ccc(C)c(Cl)c2)cc1OC	0.6%	-0.1
CC(Oc1ccccc1)C(=O)Nc1ccc(C(=O)OCc2cc(=O)n3ccsc3n2)cc1 (stereo not drawn)	-2.6%	0.4
Cc1ccc(NC(=O)Cn2cc(C(=O)c3ccco3)c3ccccc32)c(C)c1	2.4%	0.4
O=C(COc1ccccc1)Nc1nnc(SCc2cc(=O)c3ccccc3[nH]2)s1	2.1%	1.6
COc1ccc(-c2cc(C(F)(F)F)nc(SCC(=O)NCCc3ccccc3)n2)cc1OC	12%	1.2
Cc1c(C(=O)N2CCCC2)oc2c1-c1nn(CC(=O)NCc3cccc(F)c3)cc1CC2	1.3%	0.2

By substructure: the compounds so far with two or more sulfur atoms.
SMILES	PINK1 modulator	TRPML1 agonist
O=C(Nc1ccc2nc(SCCOc3ccccc3)sc2c1)c1ccco1	7.4%	0.5
COc1ccc(NC(=O)CSc2nnc(NC(=O)NC3CCCCC3)s2)cc1OC	2.1%	3.2
COc1ccc(-c2nc(CCNC(=O)c3cccs3)cs2)cc1OC	0.7%	2.5
COc1ccc(CCNC(=O)CSc2ncc3c(n2)-c2cc(Cl)ccc2N(Cc2ccccc2)S3(=O)=O)cc1OC	3.2%	1.2
O=C(COc1ccccc1)Nc1nnc(SCc2cc(=O)c3ccccc3[nH]2)s1	2.1%	1.6

Going on with the list.
SMILES	PINK1 modulator	TRPML1 agonist
CCn1cc(C(=O)NCCc2ccc(C)cc2)c(=O)c2cc(S(=O)(=O)N3CCCCC3)ccc21	3.8%	-0.8
CCOc1ccccc1CNC(=O)c1cccn1-c1nnc(N2CCCC2)s1	2.1%	0.9
COc1ccc(CCC(=O)NCc2nc3cccnc3n2Cc2cccc(OC)c2)cc1	0.9%	-1.0
Cc1ccc(Cl)cc1N1CCN(C(=O)CN2C(=O)COc3ccc(S(=O)(=O)N4CCC(C)CC4)cc32)CC1	-0.8%	2.6
Cc1ccc(S(=O)(=O)c2nnn3c2nc(N(C)Cc2ccccc2)c2cc(Cl)ccc23)cc1C	-0.3%	0.3
CCOc1cc(C(=O)Nc2cccc3cccnc23)cc(OCC)c1OCC	1.5%	3.7
CCCC(=O)Nc1nnc(SCc2cc(=O)c3cc(C)ccc3[nH]2)s1	0.7%	1.0
CN(Cc1ccccc1)C(=O)c1cn(C)c2ccc(S(=O)(=O)N(C)C3CCCCC3)cc2c1=O	4.2%	-1.0
CCN(CC)CCCNC(=O)c1ccc2c(=O)n(CCc3ccccc3)c(=O)[nH]c2c1	1.3%	-0.2
Nc1ccc2cccnc2c1	3.2%	0.3
Cc1ccc(NC(=O)CCn2c(=O)c3cccn3c3ccccc32)c(Cl)c1	3.1%	5.2
COC(=O)CC1c2cc(OC)c(OC)cc2CCN1C(=O)Nc1ccc(C)cc1Cl (stereo not drawn)	0.6%	1.3
CC1CCN(S(=O)(=O)c2ccc3[nH]cc(C(=O)NCc4ccc(F)cc4)c(=O)c3c2)CC1	2.0%	-0.9
CCOC(=O)Cn1c(=O)oc2cc(S(=O)(=O)NCc3ccc(F)cc3)ccc21	0.5%	1.8
O=C(CSC1=Nc2ccccc2N=C(c2ccc(F)cc2)C1)Nc1ccc(Cl)cc1	0.0%	0.0
CC(=O)C1=C(c2ccc(C)c(C)c2)N(C(C)=O)n2c(nnc2-c2ccc(Cl)cc2)S1	0.7%	0.8
Cc1ccc(S(=O)(=O)Nc2cc3c(cc2C)n(C)c(=O)c(=O)n3C)cc1	-0.6%	2.6
CCN(c1cccc(C)c1)S(=O)(=O)c1ccc2[nH]cc(C(=O)NCCCOC)c(=O)c2c1	-0.1%	-1.1
CCOc1ccc(-c2nnc(SCC(=O)NCc3ccccc3)o2)cc1	1.1%	0.2
COc1ccc(OC)c(-c2cc(C(=O)Nc3cccc(Cl)c3C)no2)c1	4.8%	1.2
O=C(Nc1ccccc1C(F)(F)F)c1nc(S(=O)(=O)Cc2ccccc2F)ncc1Cl	3.3%	0.1
Cc1cc(C)cc(NC(=O)CSc2oc(-c3cccs3)nc2S(=O)(=O)c2ccccc2)c1	5.7%	-0.4
O=C(NCCOCCO)C(=O)Nc1c2c(nn1-c1ccc(F)cc1)CSC2	1.3%	-0.3
Fc1ccc(CNCCCSc2nnnn2-c2ccccc2)cc1	1.3%	0.7
COc1ccc(-n2ncc(C(=O)NCCc3ccsc3)c2C2CCN(C(=O)OC(C)(C)C)CC2)cc1	-0.4%	0.4
CC(=O)c1cccc(S(=O)(=O)N2CCN(c3nc(-c4cccs4)nc4ccccc34)CC2)c1	-0.7%	-0.4
COc1ccccc1-c1nc2c(c(SCC(=O)Nc3ccc(C)c(C)c3)n1)Cc1c(CO)cnc(C)c1O2	-0.2%	-0.8
CCC(CC)C(=O)N1c2ccccc2C(C)(c2ccccc2)CC1(C)C (stereo not drawn)	29%	?
Cc1ccc(NC(=O)c2cc3c([nH]c2=O)CC(C)(C)CC3=O)c(C)c1	3.4%	0.2
CCOC(=O)c1ccc(NC2=CC(c3ccc(O)c(OCC)c3)N(c3ccc(C(=O)OCC)cc3)C2=O)cc1 (stereo not drawn)	1.7%	-0.9
Cc1ccc2occ(CC(=O)N(Cc3ccc(Cl)cc3)Cc3ccco3)c2c1	-2.5%	8.0
COc1ccc(NC(=O)c2nnn(Cc3ccccc3C)c2N)c(OC)c1	4.4%	-0.8
CCCCNc1oc(-c2ccc(COc3ccc(OC)cc3)o2)nc1C#N	0.2%	2.3
Cc1cc(Cl)ccc1NS(=O)(=O)c1cc2[nH]c(=O)c(=O)[nH]c2cc1C	1.1%	1.9
COc1ccc(-n2c(=O)c3c4c(sc3n(Cc3ccc(C)cc3C)c2=O)CCC4)c(OC)c1	-1.3%	0.7
CC(C)CN(CCNC(=O)CCN1N=C(c2ccccc2)CCC1=O)CC(C)C	-0.3%	1.0
O=C(CSc1n[nH]c(-c2ccccc2Cl)n1)N1CCN(c2ccccc2)CC1	0.5%	0.9
COc1ccc(-n2ncc3c(NCCCOC(C)C)ncnc32)cc1	0.6%	1.5
CCCNC(=O)CNC(=O)c1ccccc1OCC(=O)Nc1ccc(Br)cc1	-0.3%	-0.4

2 consecutive compounds out of the list so far:
SMILES	PINK1 modulator	TRPML1 agonist
COc1ccc(-n2ncc3c(NCCCOC(C)C)ncnc32)cc1	0.6%	1.5
CCCNC(=O)CNC(=O)c1ccccc1OCC(=O)Nc1ccc(Br)cc1	-0.3%	-0.4
